# Assay outcomes: PubChem BioAssay, Broad Institute
# DUX4 txn inh = DUX4-mediated transcription inhibition. 293T-iDUX4 ZSCAN4-Gaussia luciferase reporter, 24 h; stronger effect = lower value. 37,000 tested, 0.8% active. activity change, negative = inhibition, % (test concentration not listed). AID 1224904;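 active means -10% or lower and over 25 points stronger than a control reporter; inconclusive means -10% or lower with a smaller gap; inactive means above -10%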;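 further: 0% = median of neutral control wells and -100% = median of positive control wells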
# DUX4 txn inh difference = second read-out of DUX4 txn inh, no call of its own (marks repeat the call); Gaussia minus Italica difference, %; measured here: selective DUX4 reporter inhibition;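 worked out from the two reporters; negative = selective loss of the DUX4 reporter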
# DUX4 txn inh control = second read-out of DUX4 txn inh, no call of its own (marks repeat the call); activity change, negative = inhibition, %; measured here: Italica tet-on control reporter;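 0 = neutral control and -100 = positive control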
# Numbers without * were called inactive; u = inconclusive; x = no result given; & = joins results of further samples.
SMILES,DUX4 txn inh,DUX4 txn inh difference,DUX4 txn inh control
O=C([C@@H]1N[C@@H]2c3ccc(-c4ccccc4F)c(=O)n3C[C@@H]2[C@H]1CO)N1CCc2ccccc2C1,-7,-3,-4.9
COCC(=O)NC[C@H]1[C@H](c2ccccc2)[C@H](CO)N1C(=O)c1ccccc1,1,2,-0.7
CCCC(=O)N1CCC2(CC1)CN(Cc1cccnc1)[C@@H](CO)c1[nH]c3cc(OC)ccc3c12,2,2,-0.8
N#Cc1cccc(-c2ccc3c(c2)[C@@H]2[C@@H](CCN2C(=O)c2ccc4c(c2)OCO4)[C@H](CO)N3)c1,u,x,x
COc1ccc2c3c([nH]c2c1)[C@H](CO)N(C(=O)C1CCOCC1)CC31CCN(Cc2cccc(F)c2)CC1,u,x,x
CCNC(=O)[C@H]1[C@H](CO)[C@H]2Cn3c(ccc(-c4ccccc4)c3=O)[C@H]2N1C(=O)C1CCCC1,0,0,0.2
CCS(=O)(=O)N1Cc2cc(C(=O)O)nc(-c3cccc(-c4ccc(C#N)cc4)c3)c2[C@@H]1CCO,1,-1,2.6
COc1ccc2c3c([nH]c2c1)[C@H](CO)N(Cc1cccc(Cl)c1)CC31CCN(C)CC1,u,x,x
CC(=O)NC[C@H]1[C@@H](c2ccc(-c3ccccc3F)cc2)[C@@H](CO)N1C(C)=O,3,-2,5.2
C[C@@H]1CN([C@@H](C)CO)C(=O)c2ccccc2-c2ccccc2CO[C@H]1CN(C)C(=O)Cc1ccccc1,6,9,-3.2
CCc1csc(N2[C@H](CO)[C@H](c3ccccc3)[C@@H]2CN(C)C(=O)C2CCC2)n1,4,-2,5.6
O=C(c1ccc2c(c1)OCO2)N1C[C@@H]2[C@H](c3ccccc31)[C@@H](CO)N2CC1CCCC1,u,x,x
COc1ccc(S(=O)(=O)N[C@@H]2C=C[C@H](CC(=O)N3CCC(Cc4ccccc4)CC3)O[C@@H]2CO)cc1,u,x,x
CCCNC(=O)N1CC2(CCN(Cc3ccncc3)CC2)c2c(n(C)c3cc(OC)ccc23)[C@H]1CO,13,14,-0.8
O=C(C[C@@H]1C[C@@H]2c3cc(NC(=O)Nc4ccccc4)ccc3O[C@@H]2[C@@H](CO)O1)NC1CCCC1,-3,-5,1.6
CN1C(=O)c2cc(NC(=O)c3cccc(F)c3)ccc2OC[C@H]2O[C@H](CC(=O)N3CCc4ccccc4C3)CC[C@H]21,1,-6,7.0
C[C@@H]1CCCCO[C@@H](CN(C)C(=O)NC2CCCCC2)[C@@H](C)CN([C@@H](C)CO)C(=O)c2cc(NC(=O)CCC(F)(F)F)ccc2O1,-2,-2,0.2
C[C@@H](NC(=O)[C@@H]1[C@@H](CO)[C@@H]2Cn3c(ccc(C4=CCCC4)c3=O)[C@H]1N2C(=O)C1CC1)c1ccccc1,-4,3,-6.7
O=C(C[C@@H]1CC[C@H](NC(=O)C2CCOCC2)[C@@H](CO)O1)NCC1CCCCC1,11,6,4.7
O=C(C[C@@H]1CC[C@H]2NC[C@@H](O)COC[C@@H]2O1)NC1Cc2ccccc2C1,7,5,2.0
CN1C(=O)c2cc(NC(=O)c3cccs3)ccc2OC[C@@H]2O[C@H](CC(=O)NCC(F)(F)F)CC[C@@H]21,-4,-5,1.5
C[C@@H]1CN([C@H](C)CO)C(=O)c2cc(C3=CCCCC3)cnc2O[C@H]1CN(C)C(=O)Cc1ccncc1,-3,-6,2.5
COc1ccc(C#Cc2ccc3c(c2)[C@@H]2[C@@H](CCN2C(=O)c2ccncc2)[C@@H](CO)N3C)cc1,u,x,x
COc1ccc2c3c(n(C)c2c1)[C@@H](CO)NCC31CN(Cc2ccc(Cl)cc2)C1,-2,0,-2.3

# Sorted by molar mass (falling): ten of the compounds above.
SMILES,DUX4 txn inh,DUX4 txn inh difference,DUX4 txn inh control
C[C@@H]1CCCCO[C@@H](CN(C)C(=O)NC2CCCCC2)[C@@H](C)CN([C@@H](C)CO)C(=O)c2cc(NC(=O)CCC(F)(F)F)ccc2O1,-2,-2,0.2
CN1C(=O)c2cc(NC(=O)c3cccc(F)c3)ccc2OC[C@H]2O[C@H](CC(=O)N3CCc4ccccc4C3)CC[C@H]21,1,-6,7.0
COc1ccc(S(=O)(=O)N[C@@H]2C=C[C@H](CC(=O)N3CCC(Cc4ccccc4)CC3)O[C@@H]2CO)cc1,u,x,x
CN1C(=O)c2cc(NC(=O)c3cccs3)ccc2OC[C@@H]2O[C@H](CC(=O)NCC(F)(F)F)CC[C@@H]21,-4,-5,1.5
C[C@@H](NC(=O)[C@@H]1[C@@H](CO)[C@@H]2Cn3c(ccc(C4=CCCC4)c3=O)[C@H]1N2C(=O)C1CC1)c1ccccc1,-4,3,-6.7
O=C(C[C@@H]1C[C@@H]2c3cc(NC(=O)Nc4ccccc4)ccc3O[C@@H]2[C@@H](CO)O1)NC1CCCC1,-3,-5,1.6
O=C(c1ccc2c(c1)OCO2)N1C[C@@H]2[C@H](c3ccccc31)[C@@H](CO)N2CC1CCCC1,u,x,x
COc1ccc2c3c(n(C)c2c1)[C@@H](CO)NCC31CN(Cc2ccc(Cl)cc2)C1,-2,0,-2.3
O=C(C[C@@H]1CC[C@H](NC(=O)C2CCOCC2)[C@@H](CO)O1)NCC1CCCCC1,11,6,4.7
O=C(C[C@@H]1CC[C@H]2NC[C@@H](O)COC[C@@H]2O1)NC1Cc2ccccc2C1,7,5,2.0

# The results go on.
SMILES,DUX4 txn inh,DUX4 txn inh difference,DUX4 txn inh control
COc1ccc(S(=O)(=O)Nc2ccc3c(c2)OC[C@H](C)NC[C@@H](C)[C@H](OC)CN(C)C3=O)cc1,-9,-10,1.3
CCCNC(=O)N1C[C@@H](C)[C@H](OC)CN(C)C(=O)c2ccc(NC(=O)CC)cc2OC[C@@H]1C,-2,-2,0.1
N#C[C@@H]1[C@@H](c2ccc(C#CC3CC3)cc2)[C@@H](CO)N1S(=O)(=O)Cc1ccccc1,0,-5,5.4
C[C@H]1CN([C@@H](C)CO)C(=O)CCCn2cc(nn2)CO[C@@H]1CN(C)C(=O)Nc1ccccc1C(F)(F)F,5,4,0.8
CN(C)C(=O)C[C@H]1C[C@H]2c3cc(NC(=O)Nc4ccc(F)cc4)ccc3O[C@H]2[C@@H](CO)O1,-5,-5,0.6
O=C(C[C@@H]1C[C@@H]2c3cc(NC(=O)Nc4ccc(C(F)(F)F)cc4)ccc3O[C@@H]2[C@@H](CO)O1)NC1CCCCC1,1,-1,2.3
Cc1noc(C)c1S(=O)(=O)Nc1ccc2c(c1)C(=O)N([C@H](C)CO)C[C@@H](C)[C@@H](CN(C)C(=O)CCC(F)(F)F)OCCCC[C@H](C)O2,0,1,-0.8
O=C(C[C@@H]1CC[C@H]2[C@@H](COC[C@@H](O)CN2Cc2ccc(F)cc2)O1)NCc1ccccc1Cl,1,3,-2.0
O=C(Nc1ccc2c(c1)[C@@H]1C[C@H](CC(=O)N3CCc4ccccc4C3)O[C@H](CO)[C@@H]1O2)NC1CCCC1,1,5,-3.1
O=S(=O)(NC[C@@H]1[C@H](c2ccccc2)[C@@H](CO)N1CC1CC1)c1ccccc1,-2,-4,2.8
C[C@H](CO)N1C[C@H](C)[C@H](CN(C)C(=O)Nc2ccccc2)Oc2ccc(NS(C)(=O)=O)cc2CC1=O,5,1,4.1
CNC[C@H]1Oc2cc(C#CC(C)(C)O)ccc2S(=O)(=O)N([C@H](C)CO)C[C@@H]1C,-1,-4,3.0
CN(C)C(=O)c1ccc(-c2ccc3c(c2)[C@@H]2[C@@H](CCN2C(=O)Cc2ccccn2)[C@H](CO)N3C)cc1,11,7,4.2
CN1c2ccc(-c3ccccc3)cc2[C@H]2[C@H](CCN2C(=O)Cc2ccccc2)[C@@H]1CO,-2,2,-3.5
O=C(NCC[C@@H]1CC[C@@H](NC(=O)c2ccncc2)[C@H](CO)O1)Nc1ccc(Cl)cc1,3,0,2.2
C[C@H](CO)N1C[C@H](C)[C@H](CN(C)C(=O)Nc2ccc3c(c2)OCO3)OCCCC[C@H](C)Oc2ccc(NC(=O)C3CCCCC3)cc2C1=O,-2,-1,-0.7
CN(C)CCCNC(=O)C[C@H]1CC[C@@H]2[C@H](COc3ccc(NC(=O)c4ccccc4F)cc3C(=O)N2C)O1,1,-2,3.1
COCC(=O)N1[C@H](C#N)[C@H](c2ccc(C3=CCCC3)cc2)[C@H]1CO,-3,1,-3.5
CCCNC(=O)c1cc2c(c(-c3cccc(-c4cc5ccccc5o4)c3)n1)[C@H](CCO)N(C(=O)NC(C)C)C2,1,-1,2.4
C[C@@H]1CCCCO[C@@H](CN(C)S(=O)(=O)c2cccs2)[C@H](C)CN([C@@H](C)CO)C(=O)c2cc(N(C)C)ccc2O1,-1,0,-0.9
CN1[C@@H]2c3ccc(-c4ccncc4)c(=O)n3C[C@H]1[C@H](CO)[C@H]2C(=O)N1CCC(Cc2ccccc2)CC1,0,-6,5.9
O=C(c1ccncc1)N1C[C@@H]2[C@H](c3ccccc31)[C@@H](CO)N2C(=O)Nc1ccc(F)cc1,-3,-1,-1.2
COc1ccc(S(=O)(=O)N(C)C[C@@H]2Oc3c(NC(=O)c4nc5ccccc5s4)cccc3C(=O)N([C@@H](C)CO)C[C@H]2C)cc1,-3,-1,-1.4
CN1C(=O)c2cc(NC(=O)C3CCOCC3)ccc2OC[C@@H]2O[C@H](CC(=O)NCC3CCCCC3)CC[C@@H]21,-2,17,-20
CN1c2ccc(-c3cccc(C#N)c3)cc2[C@H]2[C@H](CCN2C(=O)C2CCCCC2)[C@H]1CO,u,x,x
COc1ccc(S(=O)(=O)Nc2ccc3c(c2)OC[C@H](C)NC[C@@H](C)[C@@H](OC)CN(C)C3=O)cc1,3,1,1.6
C[C@@H]1CCCCO[C@H](CN(C)S(=O)(=O)c2cn(C)cn2)[C@@H](C)CN([C@@H](C)CO)C(=O)c2cc(NC(=O)c3ccncc3)ccc2O1,-2,-2,-0.1
CCCNC(=O)[C@@H]1[C@@H](CO)[C@@H]2Cn3c(ccc(-c4ccccc4)c3=O)[C@@H]2N1CC,10,10,-0.2
C[C@@H]1CN([C@@H](C)CO)C(=O)c2cc(NS(=O)(=O)c3cn(C)cn3)ccc2O[C@@H]1CN(C)CC1CCCCC1,3,13,-10
COC(=O)[C@H]1[C@H](CO)[C@H]2Cn3c(cccc3=O)[C@H]2N1CC1CCCC1,21,28,-7.2
CN1CCN(C(=O)C[C@@H]2CC[C@H]3[C@@H](COC[C@@H](O)CN3S(=O)(=O)c3cccc(Cl)c3)O2)CC1,10,0,10.0
COCC(=O)N1CC2(C1)[C@H](c1ccc(C3=CCCC3)cc1)[C@H](CO)N2C(=O)COC,14,9,5.0
Cn1cnc(S(=O)(=O)N2CCCCN3[C@H](C2)[C@@H](c2ccc(-c4ccccc4F)cc2)[C@@H]3CO)c1,-3,-1,-2.7
COc1ccc(C[C@H]2CCn3nncc3COC[C@H](CC(C)C)NC2=O)cc1,1,1,0.1
CS(=O)(=O)N1[C@H](C#N)[C@H](c2ccc(C#CC3CCCCC3)cc2)[C@@H]1CO,-2,-1,-1.0
C[C@H]1CN([C@@H](C)CO)C(=O)c2cc(C#CCN(C)C)cnc2O[C@@H]1CN(C)C(=O)Nc1cccc(F)c1,0,-4,4.0
N#C[C@H]1[C@@H](c2ccc(-c3ccc(F)cc3)cc2)[C@H](CO)N1C(=O)Cc1ccccc1,-5,-3,-2.0
C/C=C/c1ccc([C@@H]2[C@@H](CO)N(C(=O)COC)[C@@H]2CNC(=O)CC)cc1,-5,-2,-2.4
O=C(C[C@@H]1CC[C@H]2[C@@H](COC[C@H](O)CN2CC2CCCCC2)O1)NCc1ccc(F)cc1,-2,-4,2.0
CN(C[C@H]1N[C@H](CO)[C@H]1c1ccc(-c2cccc(F)c2)cc1)S(C)(=O)=O,1,-2,2.2
C/C=C/c1ccccc1[C@@H]1[C@@H](C#N)N(C(=O)Cc2ccccn2)[C@H]1CO,4,4,0.3
N#C[C@H]1[C@@H](c2ccc(C3=CCCCC3)cc2)[C@@H](CO)N1C(=O)NC1CCCC1,0,1,-1.6
CCC(=O)N1[C@@H]2CN(C(=O)CC(F)(F)F)c3ccccc3[C@@H]2[C@@H]1CO,3,4,-0.9
O=C(Nc1ccc(F)cc1)N1C[C@H]2[C@@H](c3ccccc31)[C@H](CO)N2C(=O)c1ccncc1,4,2,2.1
CN(C)C(=O)c1ccc(-c2ccc(C3[C@@H]4CN(S(=O)(=O)c5ccc(F)cc5)C[C@H]3N4)cc2)cc1 (stereo not given in full),-6&-5,2&-4,-8.1&-1.2
CO[C@H]1CN(C)C(=O)c2ccc(NC(=O)c3cccc(F)c3)cc2OC[C@H](C)N(C(C)=O)C[C@@H]1C,3,3,0.0
C[C@H](CO)N1C[C@H](C)[C@@H](CN(C)S(=O)(=O)c2cn(C)cn2)Oc2ncc(C3=CCCCC3)cc2C1=O,-4,-2,-2.0
CCS(=O)(=O)N1CC2(C1)[C@@H](c1ccccc1)[C@@H](CO)N2CC1CCCC1,u,x,x
Cc1ccccc1-c1ccc(C2[C@@H]3CN(C(=O)Nc4ccc(F)cc4)C[C@H]2N3)cc1 (stereo not given in full),u,x,x
CC(C)NC(=O)N1[C@@H](CO)[C@@H]2c3ccccc3N(C(=O)Nc3ccc(Cl)cc3)C[C@@H]21,-2,-1,-1.1
CO[C@H]1CN(C)C(=O)c2cc(NS(C)(=O)=O)ccc2OC[C@H](C)N(Cc2nccs2)C[C@@H]1C,0,-2,1.7
CCCC(=O)N1CC2(CCN(CC3CCCC3)CC2)c2c([nH]c3cc(OC)ccc23)[C@@H]1CO,7,-1,7.7

# Some of the compounds tested (hit frequency here may not be typical).
